LASV entry inh – inhibitors of Lassa virus binding or cell entry. Potency, µM (doses to about 37.9 µM), for inactives: top-dose activity change, negative = inhibition, usual class: inhibitors. actives 1.2% (n = 300,000). Lassa virus pseudotype entry inhibition, cell reporter; control for the full effect not named in the record. AID 540256; active means well fitted inhibition curve with a large enough effect; inconclusive means small, poorly fitted or top-dose-only effect, or effect the other way; inactive means flat fitted curve, though single readings scatter; tested in HEK293 cells; also: % is scaled to controls: 0 for no effect and ±100 for the full control effect; nearly all actives have a fitted effect of over 50% in size; luciferase read-out
StopGo reporter – lowers the luciferase signal of an FMDV 2A StopGo reporter | human cells with a luciferase reporter of 2A StopGo recoding; control for the full effect not named in the record | Potency, µM (titrated, usually from 57.9 µM), without a hit: top-dose signal change, negative = less light | actives 1.2% (n = 410,000); active = well fitted falling curve with a large enough effect; inconclusive = small, poorly fitted or top-dose-only effect; inactive = no such curve, though single readings can be large or run the other way; tested in HEK293T cells; also: % is scaled to controls: 0 for no effect and ±100 for the full control effect; nearly all actives have a fitted effect of over 45% in size; luciferase light after 4 h
NS1 function inh – influenza NS1 inhibition; S. cerevisiae slowed by influenza A NS1, growth recovery by OD600; Potency, µM (titrated, usually from 46.1 µM), without a hit: at the top dose activity, positive = more growth; actives 0.4% (n = 270,000); active means well fitted rising curve with a large enough effect; inconclusive means small, poorly fitted or top-dose-only effect; inactive means no such curve, though single readings can be large or run the other way; also: nearly all actives have a fitted effect of over 50% in size
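Recovery from NS1-induced slow growth read by OD600 in budding yeast switched to galactose assay medium (pH 6.0, -URA) at 1:100 dilution. Compound 23 nl per well; the matching strain lacking NS1 serves as control.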
RE007 growth inh – less growth of the S. pombe RE007 Vpr strain. S. pombe RE007 Vpr strain, BacTiter-Glo ATP luminescence, 24 h; control for the full effect not named in the record. Potency, µM (titrated, usually from 92.2 µM), for inactives: top-dose activity change, negative = less growth. actives 0.21% (n = 360,000); active = well fitted falling curve with a large enough effect; inconclusive = small, poorly fitted or top-dose-only effect; inactive = no such curve, though single readings can be large or run the other way;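 also: % is scaled to controls: 0 for no effect and ±100 for the full control effect; nearly all actives have a fitted effect of over 50% in size; the assay follows cell death caused by Vpr and the record does not say whether a fall means rescue or toxicity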
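Fission yeast strain RE007, carrying one chromosomally integrated HIV-1 vpr copy, was seeded at OD 0.01 in PMG+AL medium with 23 nL pinned compound. After 24 h at 30 °C and 99% humidity, viability was read by BacTiter-Glo luminescence.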
Cruzain noTriton – inhibitors of Trypanosoma cruzi cruzain without detergent; AID 1476; actives 2.3% (n = 200,000); Potency, µM, inactives show max response, negative = inhibition, hits mostly inhibitors; purified cruzain, Z-FR-AMC fluorescence, no detergent;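 also: plate controls were enzyme without inhibitor for no effect and buffer without enzyme for full effect; nearly all actives have a fitted effect of over 40% in size; top concentration of the series not given in the record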
Target sequence (P25779 123-467 limits assumed): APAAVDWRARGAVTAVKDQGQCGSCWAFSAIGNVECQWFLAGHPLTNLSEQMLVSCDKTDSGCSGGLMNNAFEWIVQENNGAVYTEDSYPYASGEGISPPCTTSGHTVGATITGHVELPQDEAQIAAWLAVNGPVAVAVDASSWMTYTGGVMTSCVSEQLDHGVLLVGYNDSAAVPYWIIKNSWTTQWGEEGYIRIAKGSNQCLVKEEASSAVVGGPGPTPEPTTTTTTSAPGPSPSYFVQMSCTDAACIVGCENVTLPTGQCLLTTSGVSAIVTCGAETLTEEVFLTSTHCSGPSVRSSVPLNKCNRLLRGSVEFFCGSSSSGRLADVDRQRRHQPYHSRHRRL
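Detergent-free condition (0.00005% Triton X-100) in acetate buffer pH 5.5 with DTT. 1.5 nM enzyme and compound were pre-mixed 15 min, then 2 uM Z-FR-AMC substrate added; reaction progress from fluorescence change between first and third reads (60 s).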
Cruzain Triton – cruzain (T. cruzi) inhibition with detergent. purified cruzain, Z-FR-AMC fluorescence, 0.01% Triton. Potency, µM, for inactives: max response, negative = inhibition, actives largely listed as inhibitors. AID 1478. P25779. actives 0.43% (n = 200,000);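 also: plate controls were neutral wells for no effect and buffer without enzyme for full effect; nearly all actives have a fitted effect of over 40% in size; top concentration of the series not given in the record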
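15 min RT preincubation of 1.5 nM cruzain with compound, then 2 uM Z-FR-AMC added; kinetic AMC fluorescence, 60 s delta. Triton X-100 0.01%, pH 5.5.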
SARS PLpro yeast – SARS-CoV PLP inhibition in yeast; S. cerevisiae expressing SARS-CoV PLpro, growth rescue; control for the full effect not named in the record; Potency, µM (highest dose often 32.9 µM), inactives show at the highest dose activity, positive = growth rescue; actives 0.19% (n = 330,000); AID 485353; active means well fitted rising curve with a large enough effect; inconclusive means small, poorly fitted or top-dose-only effect; inactive means no such curve, though single readings can be large or run the other way; also: 0% is about no effect; nearly all actives have a fitted effect of over 55% in size; growth read by luminescence after 48 h
Marburg entry inh – inhibitors of Marburg virus binding or cell entry. AID 540276. Potency, µM (top dose mostly 37.8 µM), inactives show top-dose activity change, negative = inhibition, actives largely listed as inhibitors. actives 1.8% (n = 300,000). Marburg virus pseudotyped entry inhibition, cell reporter; control for the full effect not named in the record; about a third of the inactives were read at about 46 µM; active = well fitted inhibition curve with a large enough effect; inconclusive = small, poorly fitted or top-dose-only effect, or effect the other way; inactive = flat fitted curve, though single readings scatter; tested in HEK293 cells; about a fifth of its hits are not listed in these tables; also: % is scaled to controls: 0 for no effect and ±100 for the full control effect; luciferase read-out
Numbers without * were called inactive; ? = inconclusive; · = not tested or not shown; & = joins results of further samples; [ ] = dose if it differs, or a comment. Unless noted, calls follow the shape of the dose curve; as a rule, active = well fitted curve in the direction sought with a large enough effect; inconclusive = small, poorly fitted or top-dose-only effect, or another doubt; inactive = no such curve, though single readings can be large; an effect the other way counts as inactive or inconclusive. Potency is read from the fitted curve at half-maximal effect. The order is random. Share with any hit: about 4.7%.

SMILES	LASV entry inh	StopGo reporter	NS1 function inh	RE007 growth inh	Cruzain noTriton	Cruzain Triton	SARS PLpro yeast	Marburg entry inh
Cc1ccc(Nc2nc(-c3sc(NC(=O)c4ccco4)nc3C)cs2)cc1	·	-19%	?	5%	-26%	2.7%	2%	·
O=C(COc1ccc(F)c(Cl)c1)N1CCN(c2ccccn2)CC1	-6%	-4%	-17%	?	·	·	?	?
CCCOc1cccc(C(=O)Nc2cccnc2)c1	19%	·	-22%	1%	0%	1.5%	-5%	-11%
CC(=O)Nc1ccc(S(=O)(=O)c2ccc([N+](=O)[O-])cc2)cc1	·	?	1%	12%	·	·	-3%	·
COc1ccc2ccccc2c1CNCc1ccccn1	29%	42%[activator]	1%	9%	-2%	1.0%	-5%	?
Cc1nn(CC2CCCCC2)c(N)c1-c1ccccc1	21%	35%[activator]	-83%	28%	3%	0.7%	-5%	9%
CC12CN3CC(C)(CN(C1)C3c1cccs1)C2 (stereo unspecified)	4%	-12%	-10%	-13%	-1%	2.7%	0%	0%
Cc1ccc(-n2nc(C)c3c(C)cc(=O)n(CC(=O)NC(C)C)c32)cc1	7%[46.1 µM]	-10%	·	·	9%	-1.9%	·	·
O=C(Nc1ccc(S(=O)(=O)Nc2ccccn2)cc1)c1cccc([N+](=O)[O-])c1	6%	3%	8%	1%	·	·	1%	4%
COc1ccc(N2C(=O)CC(N(Cc3ccc(S(N)(=O)=O)cc3)C(C)=O)C2=O)cc1 (stereo unspecified)	10%	2%	4%	1%	-10%	-1.3%	-6%	-5%&14%
CCCn1c2c(c(O)c(C(=O)Nc3nc4ccccc4s3)c1=O)CCCC2	2%	32%[activator]	1%	-22%	·	·	0%	4%[46.1 µM]
COCCCn1cnnc1SCC(=O)Nc1ccc(S(=O)(=O)N2CCCC2)cc1	4%	-7%	0%	10%	9%	-0.9%	12%	3%
COc1cc2c(cc1OC)C1=C(C#N)CC/C(=N\S(=O)(=O)c3cccc(Cl)c3)N1CC2	-13%	-5%	20%	16%	25%	-7.8%	0%	3%
COc1cccc(C2CC(=O)N(c3ccc(F)cc3)C3=C2C(=O)OC3)c1OC (stereo unspecified)	-25%[46.1 µM]	-11%	·	·	-6%	0.7%	·	3%[46.1 µM]
CN1CCN(C2=Cc3cc(Cl)ccc3Sc3cc(F)ccc32)CC1	10µM*	?	-34%	4%	2%	-18%	-27%	?
CCC(=O)c1ccc(OCC(=O)OCC(=O)Nc2cccc(S(=O)(=O)N3CCOCC3)c2)cc1	1%	-28%	·	-21%	·	·	·	-4%
CCOc1ccc(N(Cc2cc3cc(C)ccc3[nH]c2=O)C(=O)c2cccc(Cl)c2)cc1	-4%[46.1 µM]	?	·	·	-17%	-2.8%	·	0%[46.1 µM]
COC(=O)COc1ccc(C2C(C(=O)OC)=C(C)NC3=C2C(=O)c2ccccc23)cc1OC (stereo unspecified)	-1%[46.1 µM]	-16%	·	·	?	-11%	·	10%[46.1 µM]
O=C(CN1C(=O)NC2(CCCC2)C1=O)Nc1cc(C(F)(F)F)ccc1N1CCCCC1	6%	-11%	·	1%	·	·	-4%	?
Cc1ccc(N(CC(O)CN2CCCCC2)S(=O)(=O)c2ccccc2)cc1 (stereo unspecified)	·	-19%	9%	1%	·	·	0%	·
COc1ccccc1Nc1cc(C(=O)NCc2cccs2)c2ccccc2n1	-16%[46.1 µM]	-3%	·	·	?	-11%	·	?
Cc1cccc(C(=O)NCCC(=O)Nc2ccc(C)c(F)c2)c1	·	-2%	2%	-1%	·	·	1%	-10%[46.1 µM]
CC1CCC2C(=O)N(c3ccc(C(=O)Oc4cccc5cccnc45)cc3)C(=O)C2C1 (stereo unspecified)	?	-5%	-5%	?	11%	-8.0%	-53%	?
CCOc1ccc(C(=O)O)cc1OC	0%	-13%	-2%	9%	-4%	5.6%	1%	5%
CC1(OC(=O)CCc2ccccc2)C(=O)C=C2C=C(c3ccc(C#N)cc3)N(Cc3ccccc3)C=C2C1=O (stereo unspecified)	·	-14%	-1%	14%	·	·	1%	?
COc1cc(/C=C2\C(=N)N3N=C(S(C)(=O)=O)SC3=NC2=O)cc(OC)c1OCCOc1cccc(C)c1	?	-18%	0%	-14%	·	·	-1%	?
O=C(COc1ccccc1[N+](=O)[O-])N(Cc1ccccc1)c1ccccn1	?	7%	·	7%	·	·	0%	?
Cc1csc(NC(=O)c2c(-c3c(Cl)cccc3Cl)noc2C)n1	-1%	-1%	0%	-4%	?	0.1%	7%	-8%
CN1CCN(C(=O)c2ccccc2-c2nc(-c3ccccc3)no2)CC1	1%	29%	-8%	-16%	-21%	-1.6%	-3%	-2%
Cc1ccc2nc(SCC(=O)OCc3ccccc3)nc(=O)n2c1	3%	10%	·	-17%	·	·	0%	-7%
O=C(CCCN1C(=O)/C(=C/c2ccccc2Cl)SC1=S)NNC(=O)c1ccc(Cl)cc1Cl	·	8.9µM*	-7%	-1%	·	·	11%	·
CC/C=C/C(=O)N1CC2(CC(c3cccc(NC(=O)COc4ccc(Cl)cc4)c3)=NO2)C[C@H]1C(N)=O (stereo partly specified)	·	?	2%	6%	·	·	2%	·
CCN1CCN(c2cc(C)c3cc(NC(=O)c4cccnc4Cl)ccc3n2)CC1	-3%	0%	4%	2%	-4%	-2.4%	-6%	?
COc1ccc2c(CCNC(=O)Nc3ccccc3)c[nH]c2c1	7%	?	1%	2%	·	·	0%	?
Cc1c(C)c2ccc(OC(C)C(=O)NCCN3CCOCC3)c(C)c2oc1=O (stereo unspecified)	·	-6%	0%	-17%	·	·	11%	·
Nc1sc(-c2ccccc2)cc1C(=O)N/N=C/c1ccc(Cl)cc1	2%[46.1 µM]	-2%	3%	-3%	·	·	-3%	-2%[46.1 µM]
Cc1ccc(C)c(NC(=O)N2CCN(C(=O)c3nsc4ccccc34)CC2)c1	-7%[46.1 µM]	?	·	·	-5%	-3.1%	·	·
Cc1nc(NS(=O)(=O)c2ccccc2)sc1NC(=O)OCCN(C)C	8%	-6%	11%	18%	-6%	0.6%	2%	29%&29%
Cc1nn(Cc2ccc(C(=O)N/N=C/c3ccncc3)o2)c(C)c1Cl	?	42%[activator]	-10%	-5%	·	·	1%	-2%[46.1 µM]
COc1cc(OC)c(NC(=O)Cn2ncn3c(cc4cc(C)ccc43)c2=O)cc1Cl	·	5%	·	·	46%	-2.9%	·	4%[46.1 µM]
CC(=O)c1c(N2CCOCC2)nc(=S)n(-c2ccc([N+](=O)[O-])cc2)c1C	4%	-16%	4%	17%	-5%	3.4%	8%	29%
COc1ccc(NC(=O)c2ccc(-c3ccc([N+](=O)[O-])cc3)o2)cc1	17%[46.1 µM]	-15%	·	4%	·	·	-5%	?
O=C(NCN1CCN(c2ccccc2F)CC1)c1ccccc1	4%	-2%	2%	4%[3.69 µM]	9%	-3.4%	5%	7%
CCOC(=O)N1CCN(C(=O)Cn2nc(-c3ccc(Cl)cc3)ccc2=O)CC1	4%	-10%	3%	3%	?	-1.0%	9%	3%
O=C(CC1SC(N2CCCC2)=NC1=O)Nc1ccc(C(=O)Nc2ncccc2O)cc1 (stereo unspecified)	-18%[46.1 µM]	17%	·	?	·	·	4%	-3%
CCc1cc(=O)oc2c(C)c(OC(C)C(=O)N3CC[C@@]4(O)CCCC[C@H]4C3)ccc12 (stereo partly specified)	·	0%	3%	-1%	·	·	4%	·
O=C(Nc1nc2c(s1)CCCC2)c1ccc(S(=O)(=O)N2CCCc3ccccc32)cc1	?	?	2%	0%	?	-1.6%	-11%	23µM*
Cc1cc(C)nc(-n2nc(C)c3c(C)c(C)c(C)nc32)n1	·	·	-1%	·	-10%	3.2%	-5%	3%
O=C(CSc1nccn1Cc1ccccc1)NCc1ccco1	-6%[46.1 µM]	39%[activator]	·	·	3%	-4.0%	·	·
CCCCNC(=O)c1cc2c(=O)n3cccc(C)c3nc2n(CCN2CCOCC2)c1=N	-1%	-16%	0%	-1%	-4%	?	4%	?
CC(=O)N(Cc1cccs1)Cc1cc2cc(C)c(C)cc2nc1Cl	?	-18%	·	7%	·	·	-3%	?
COc1ccc(NC(=O)N2CCCc3cc(C)ccc32)c(OC)c1	·	14%	-12%	5%	·	·	-3%	·
CC(NC(=O)CCSc1nc(-c2ccc3c(c2)OCO3)cc(C(F)(F)F)n1)c1ccccc1 (stereo unspecified)	3%	-13%	-2%	4%	-5%	-21%	3%	?
O=C(CCS(=O)(=O)c1ccc(Br)cc1)NC1CCCCCC1	·	-6%	-4%	-3%	·	·	13%	·
Oc1ccc(C2Nc3cccc4cccc(c34)N2)c(O)c1	7%	-25%	4%	-22%	16µM*	?	-10%	-10%
O=C(NC1CCCC1)C1CC(=O)N(C2CCCCCCC2)C1 (stereo unspecified)	-7%	·	10%	-1%	-1%	5.2%	-5%	-8%
CN(C(=O)Oc1ccc(Cl)c2cccnc12)c1ccccc1	?	-11%	-2%	-13%	-8%	-1.7%	13%	-2%
OC1CCN(Cc2ccc3ccccc3c2)CC1	14%	1%	-2%	5%	·	·	4%	19%
CC(C)Oc1ccc(S(=O)(=O)N2CCOCC2)cc1NC(=O)c1cccc(S(=O)(=O)N2CCCC2)c1	-5%	-1%	·	-17%	·	·	·	-11%
Cn1c(CC(=O)Nc2ccccc2F)nnc1SCC(=O)N1CCOCC1	-4%	42%[activator]	4%	1%	·	·	?	6%

Single records (already shown). Values in the order: LASV entry inh	StopGo reporter	NS1 function inh	RE007 growth inh	Cruzain noTriton	Cruzain Triton	SARS PLpro yeast	Marburg entry inh
`Cc1cc(C)nc(-n2nc(C)c3c(C)c(C)c(C)nc32)n1` as listed: ·	·	-1%	·	-10%	3.2%	-5%	3%
`CCCCNC(=O)c1cc2c(=O)n3cccc(C)c3nc2n(CCN2CCOCC2)c1=N` as listed: -1%	-16%	0%	-1%	-4%	?	4%	?

Source: PubChem (National Center for Advancing Translational Sciences (NCATS))
